From PubChem
NPYLR7 ag: activates Aedes aegypti NPYLR7 receptor. HEK293T NPYLR7/Galpha15, GCaMP6s calcium fluorescence. activation, % at 10 µM. 270,000 tested, 0.15% active; in the data active means activation above about 40%;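 further: 0% = vehicle and 100% = reference agonist at the receptor; some compounds past the cut are filed as inactive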
NPYLR7 ag max-min: also measured in NPYLR7 ag; calls as there; activation, %; measured here: Max-Min RFU normalised activation; some inactives read as strong as hits;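 span of the calcium signal over five minutes; 0% = vehicle and 100% = native peptide agonist; compound fluorescence can raise it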
* marks the source's active call; other numbers are inactive results; & = joins results of further samples. Only part of the results is shown; the hit share may differ from the screen's.

Molecule	NPYLR7 ag max-min	NPYLR7 ag
CCN1C(=O)N(Cc2cccc(OC)c2)C(=O)C12CCN(Cc1nc3ccccc3nc1C)CC2	0	11
Nc1nc(=O)c2cccnc2s1	-2	-1
Cn1ccnc1SCc1cc(=O)c(OC(=O)c2cc3ccccc3oc2=O)co1	-5	-3
CCC1CN(C(=O)c2ncc(F)cc2F)CCC(=O)N1Cc1ccccc1 (stereo not drawn)	22	29
COc1c(C(C)C)oc2cc3oc(=O)ccc3cc12	-18	-10
O=C(CNC(=O)c1ccccc1F)N=Nc1c(O)[nH]c2ccccc12	-9	-3
CCOc1ccccc1C(=O)Nc1cc(-c2onc3c2CCCC3)cc(C(F)(F)F)c1	28	26
Cc1cccc(-c2noc(N3CCOCC3)c2CNCC2CCCO2)c1 (stereo not drawn)	37	38
CCCCN=C1CCCc2ccccc2N1	21	-2
Cc1cccc(CN2CCCC3(CCN(c4ccccn4)C3)C2=O)c1 (stereo not drawn)	0	3
CCN(CC(C)C(=O)OC)c1ncnc2ccc(Br)cc12 (stereo not drawn)	-5	-4
COc1ccc(CN(CCC(C)C)CC(O)COCc2ccco2)cc1OC (stereo not drawn)	8	-1
COc1ccccc1-c1cc(C(=O)N2CCN(C/C=C/c3ccccc3)CC2)nc2cc(C(C)(C)C)nn12	4	-6
COc1cccc(CSc2nc(C)c(CC(=O)NC3CC3)c(=O)[nH]2)c1	-14	-8
COC(=O)NC(C(=O)Nc1cnn(C(C)(C)C)c1)C(C)C (stereo not drawn)	5	8
CC(c1ccccc1)N1CCN(S(=O)(=O)Cc2cccc(Cl)c2)CC1 (stereo not drawn)	8	16
O=C(c1ccc2[nH]c(=O)c(=O)[nH]c2c1)N1CCCC2(CCNCC2)CC1	6	8
Cc1cc(-c2nnc(NC(=O)c3ccc4ncsc4c3)o2)n(C)n1	-4	-4
CCC(C)(C)NC(=O)c1oc2ccccc2c1COC	-3	-1
Cc1ccc(-c2cc3c(=O)n(Cc4ccc(C)cc4C)ccn3n2)cc1	-3	0
CCOC(=O)c1c(C)[nH]c(C(=O)C(C)OC(=O)Cn2cc(C(F)(F)F)ccc2=O)c1C (stereo not drawn)	7	1
Cn1nc(C(=O)N2CCCC3(CC2)CNC(=O)O3)c2c1CCCC2 (stereo not drawn)	2	9
O=C1Nc2ccccc2C1=NN=Cc1cccc(Oc2ccccc2)c1	18	1
COC(=O)C1=C(C)NC(=O)NC1c1ccccc1F (stereo not drawn)	-15	-8
OCC1(Cc2ccccc2)CCN(C2CCN(c3ccccc3F)CC2)CC1	-4	-3
Nc1nc(CSc2nnc(C3CC3)n2C2CC2)nc(Nc2ccc(F)cc2)n1	3	0
CCOc1ccccc1NC(=O)N1CCC[C@H]1C(=O)N1CCC(C(=O)N2CCOCC2)CC1	15	9
O=C(CCl)N1CCN(S(=O)(=O)c2ccccc2Cl)CC1	17	13
COc1ccccc1NC(=O)Nc1ccnn1C1CCN(Cc2cccc(C)n2)CC1	1	2
O=C(NCCc1cccc(F)c1)C1CCC(=O)N(CCCc2ccccc2)C1 (stereo not drawn)	-2	-1

In the list so far, two contain a CF3 group:
Molecule	NPYLR7 ag max-min	NPYLR7 ag
CCOc1ccccc1C(=O)Nc1cc(-c2onc3c2CCCC3)cc(C(F)(F)F)c1	28	26
CCOC(=O)c1c(C)[nH]c(C(=O)C(C)OC(=O)Cn2cc(C(F)(F)F)ccc2=O)c1C (stereo not drawn)	7	1

As a working copy, some entries already given.
Molecule	NPYLR7 ag max-min	NPYLR7 ag
CCN(CC(C)C(=O)OC)c1ncnc2ccc(Br)cc12 (stereo not drawn)	-5	-4
COc1ccc(CN(CCC(C)C)CC(O)COCc2ccco2)cc1OC (stereo not drawn)	8	-1

(list continues)
Molecule	NPYLR7 ag max-min	NPYLR7 ag
C=CCNC(=O)NC(=O)CSc1nc2ccccc2c(=O)n1C1CC1	-1	1
CCNC(=O)C(CC(C)C)N1C(=O)CSC1c1ccc(OC)c(OC)c1 (stereo not drawn)	22	21
CCOC(=O)c1cc(C(=O)OCC)c2c(C)cc(C)cc(C)c1-2	-8	-7
Cc1nc2c(o1)N(c1ccccc1)C(=N)C(C#N)C2c1ccccc1 (stereo not drawn)	-3	1
COc1ccc(N2CCN(c3nc(SCc4ccc(C(=O)O)cc4)nc(C)c3C)CC2)cc1	-8	-15
CC(=O)N1CCC(C(=O)Nc2cnn(-c3ccccc3Cl)c2)CC1	2	4
CN(Cc1nc(-c2ccco2)no1)Cc1cn[nH]c1-c1ccc(F)cc1	-9	-4
O=C(c1nn(-c2ccc(F)cc2)c(=O)n(Cc2ccccc2F)c1=O)N1CCOCC1	10	12
CCNC(=O)[C@@]1(OCc2cccc(C)c2)CC(OCc2ccccc2C#N)[C@@H]2OC(C)(C)O[C@@H]2C1 (stereo partly drawn)	23	29
C=CCc1ccccc1OCC(O)CNC(C)C (stereo not drawn)	-4&10&3	-4&9&2
O=C(/C=C/c1cccc([N+](=O)[O-])c1)Nc1nc(-c2ccccc2)cs1	4	4
Cc1cc(=O)n2nc(Sc3ccc(F)c(Cl)c3)sc2n1	-4	-4
CC1c2ccc(F)cc2CCN1CC(=O)NCc1cccnc1 (stereo not drawn)	7	6
O=C(NC1CCCC1)c1cnc(N2CCN(CCOc3ccccc3)CC2)c(Cl)c1	4	9
COc1cc(OC)c(C2c3cccn3CCCN2Cc2ccc(F)cc2)cc1OC (stereo not drawn)	13	1
Cc1cccc(OCCSc2nc3ccccc3n2CC(=O)N2CCOCC2)c1C	6	-2
CSc1nn(CC(=O)Nc2ccc(F)cc2F)c(N)c1-c1nc(-c2ccc3c(c2)OCO3)no1	-11	-8
Cn1c(/C=N\n2cnnc2)nc2ccccc21	-17	-10
CC(C)NC(=O)CN1CN(c2ccccc2)C2(CCN(C(=O)COCc3ccccc3)CC2)C1=O	13	9
NC(=O)C1CCN(C(=O)C2CCCN(S(=O)(=O)N3CCCCCC3)C2)CC1 (stereo not drawn)	0	3
O=C(CNCC(O)c1ccccc1Cl)NCc1ccccc1F (stereo not drawn)	12	22
COc1ccc(-c2ccc3ncnc(N4CCN(C)CC4)c3c2)c2cccnc12	3	7
O=C(C1CCN(CN2C(=O)C3CC=CCC3C2=O)CC1)N1CCCCCC1 (stereo not drawn)	10	-3
Cc1ccc(C(=O)NC(C(=O)NC2CC2)C2CCN(C(=O)c3cccc(F)c3)CC2)cc1 (stereo not drawn)	8	8
O=C(CC1CCS(=O)(=O)C1)Nc1ccc[nH]c1=O (stereo not drawn)	7	7
CC(=O)Oc1ccc(N2C(=O)c3cccc4c([N+](=O)[O-])ccc(c34)C2=O)cc1	-12	-7
CCOc1ccc(-n2c(=O)c3ccc(Cl)cc3n(CC(=O)NCc3ccc(F)cc3)c2=O)cc1	9	-5
CCCc1cc(N2CCCN(Cc3ccccn3)CC2)nc(C)n1	7	16
CN(Cc1ccco1)C(=O)c1ccccc1N1CCC(NC(=O)c2ccc(Cl)cc2Cl)CC1	11	0
CCOC(=O)c1sc(NC(=O)c2ccc3c(c2)OCCO3)c(C(=O)OCC)c1C	-10	-7

Full records as entered above. Order of values: NPYLR7 ag max-min	NPYLR7 ag
Results for CC(=O)N1CCC(C(=O)Nc2cnn(-c3ccccc3Cl)c2)CC1 → 2	4
Results for CC(=O)Oc1ccc(N2C(=O)c3cccc4c([N+](=O)[O-])ccc(c34)C2=O)cc1 → -12	-7
Results for COc1c(C(C)C)oc2cc3oc(=O)ccc3cc12 → -18	-10

The results go on:
Molecule	NPYLR7 ag max-min	NPYLR7 ag
Cc1ccc(Nc2nc3ccccc3c3nncn23)cc1F	-7	-2
N#CC1=C2C=CC=CN2C(c2ccccc2)(C(F)(F)F)NC1=S (stereo not drawn)	5	5
Cc1ccn2c(NC(C)(C)CC(C)(C)C)c(-c3ccc(OC(=O)C4CCC4)cc3)nc2c1	10	4
COc1ccc2c(COC(=O)c3cc(=O)c4ccccc4o3)cc(=O)oc2c1	-2	-1

Reformatted: results already given
Fields: NPYLR7 ag max-min	NPYLR7 ag
N#CC1=C2C=CC=CN2C(c2ccccc2)(C(F)(F)F)NC1=S (stereo not drawn)
  5	5
Cc1ccn2c(NC(C)(C)CC(C)(C)C)c(-c3ccc(OC(=O)C4CCC4)cc3)nc2c1
  10	4
COc1ccc2c(COC(=O)c3cc(=O)c4ccccc4o3)cc(=O)oc2c1
  -2	-1
